# RGS16-Gao HTS = regulators of human RGS16-Galphao interaction; actives 0.38% (n = 220,000); binding response (% of control), % at 10 µM; bead-based flow cytometry RGS16-Galphao binding, fluorescence; actives lie on both sides;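 active = below 25% or above 175%, edge rows of some plates excepted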;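 note: Galphao activated by GDP with aluminum fluoride before binding; 100% = wells without compound and 0% = beads without RGS; some results beyond the cut were filed as inactive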
# Target sequence (O15492 whole entry, looked up): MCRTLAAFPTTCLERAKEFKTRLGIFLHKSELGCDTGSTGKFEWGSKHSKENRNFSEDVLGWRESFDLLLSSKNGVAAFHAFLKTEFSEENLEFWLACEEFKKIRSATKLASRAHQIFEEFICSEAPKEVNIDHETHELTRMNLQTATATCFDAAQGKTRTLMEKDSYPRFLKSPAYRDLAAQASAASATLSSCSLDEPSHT
# Target sequence (P09471 whole entry, looked up): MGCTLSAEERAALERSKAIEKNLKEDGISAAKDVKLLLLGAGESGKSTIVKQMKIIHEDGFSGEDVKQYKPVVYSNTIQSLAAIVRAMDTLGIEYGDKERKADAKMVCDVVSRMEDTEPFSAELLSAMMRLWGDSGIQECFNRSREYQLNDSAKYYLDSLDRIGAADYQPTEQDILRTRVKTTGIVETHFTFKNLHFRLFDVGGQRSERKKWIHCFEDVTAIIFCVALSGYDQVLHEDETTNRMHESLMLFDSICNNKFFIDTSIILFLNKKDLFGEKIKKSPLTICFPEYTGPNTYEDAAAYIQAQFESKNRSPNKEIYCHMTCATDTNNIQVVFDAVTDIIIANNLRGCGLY
# HSV augment = HSV replication enhancement; actives 0.005% (n = 220,000); AID 1956; maximum fold increase; HSV replication augmentation in cells, fold increase;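 active = peak rise of 1.5-fold or more in the series; inconclusive = self-fluorescent or not available for retest; tested in PC3 cells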;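 note: first round at 10 µM; read as green reporter fluorescence; hits show the peak of a series up to 25 µM; 1 = signal of infected wells without compound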
# Insulin prom inh = TRM-6 insulin promoter activity inhibition; TRM-6 cells (human fetal islet line), insulin promoter-eGFP reporter, imaging; reporter expression induced with tamoxifen; inhibition, % at 2 µM; actives 0.9% (n = 130,000);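 active = inhibition above the mean plus 3 SD, with well images judged a real hit on visual review, cut at about 60% in these data, passing the limit was not always enough; inconclusive = inhibition over the cutoff but images rejected on review; inactive = inhibition not above the cutoff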
# PKD1 kinase inh = blocks activity of human protein kinase D1; Q15139; PKD1 kinase fluorescence polarization assay; inhibition, %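 (about 10 µM by stock and volumes)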; actives 0.056% (n = 200,000);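 active = inhibition of 50% or more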;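 note: controls were vehicle for no effect and a reference inhibitor for full effect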
# GALR2 agonist = GALR2 (human) receptor agonism; activation, %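 (tested at 5 µM)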; AID 803; actives 0.48% (n = 140,000); GALR2-expressing cells, agonist activation read-out; O43603;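 active = above mean plus 3 SD of all compounds, about 5% in these data, not always enough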;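 note: 0% = vehicle buffer wells and 100% = reference agonist at full effect; tested in CHO reporter cells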
# Target sequence (O43603 whole entry, looked up): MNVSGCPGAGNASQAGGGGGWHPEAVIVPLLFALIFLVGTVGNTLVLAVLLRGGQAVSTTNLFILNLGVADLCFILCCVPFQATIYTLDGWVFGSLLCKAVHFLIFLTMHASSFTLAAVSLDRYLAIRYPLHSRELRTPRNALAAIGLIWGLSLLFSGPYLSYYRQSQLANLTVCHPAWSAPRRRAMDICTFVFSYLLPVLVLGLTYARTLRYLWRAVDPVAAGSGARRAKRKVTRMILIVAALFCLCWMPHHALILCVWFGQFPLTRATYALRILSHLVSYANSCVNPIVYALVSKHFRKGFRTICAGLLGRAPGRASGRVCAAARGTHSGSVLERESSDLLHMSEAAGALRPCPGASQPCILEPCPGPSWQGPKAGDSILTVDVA
# Insulin prom inh cell count = recorded beside Insulin prom inh, whose call it bears; normalized cell count, %; measured here: cell count, toxicity; reference of the scale not given here;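 cells exposed to compound for 48 h; stained nuclei by imaging scaled within each plate; lower means fewer cells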
# HSV augment primary fold = also measured in HSV augment; calls as there; fold increase; compound at 10 µM; measured here: primary screen fold increase 10 uM; tested in PC3 cells;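 GFP signal in the first replicate; 1 = infected wells without compound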
# * hit, by the source's call; i = inactive; ? = inconclusive; · = not tested or not shown.
# The opening 2 records, to show the layout:
# Results follow in this order: Insulin prom inh cell count	Insulin prom inh	RGS16-Gao HTS	HSV augment primary fold	HSV augment	PKD1 kinase inh	GALR2 agonist
CCc1cc(C(=O)N=Nc2c(O)[nH]c3ccc([N+](=O)[O-])cc23)c2ccccc2n1
 : 104	-14	104	0.89	i	-2	-0.1
Cc1cc(Cn2ccnc2)c(C)cc1Cn1ccnc1
 : 101	-61	96	0.77	i	-3	-0.6

# This part in full, previewed entries included:
# Results follow in this order: Insulin prom inh cell count	Insulin prom inh	RGS16-Gao HTS	HSV augment primary fold	HSV augment	PKD1 kinase inh	GALR2 agonist
CCc1cc(C(=O)N=Nc2c(O)[nH]c3ccc([N+](=O)[O-])cc23)c2ccccc2n1
 : 104	-14	104	0.89	i	-2	-0.1
Cc1cc(Cn2ccnc2)c(C)cc1Cn1ccnc1
 : 101	-61	96	0.77	i	-3	-0.6
COc1ccc(-c2c(C#N)c(N)nc3c2CCCC3)cc1OC
 : 100	-256	·	0.86	i	-11	-0.5
O=C(C1CCCN(S(=O)(=O)c2cnc[nH]2)C1)N(CCc1ccccc1)Cc1ccccc1 (configuration not stated)
 : ·	·	17	1.1	i	-9	-0.9
O=C(CCCC(=O)OCC(F)(F)C(F)F)Nc1nccs1
 : ·	·	100	1	i	-2	-0.5
O=Cc1ccc(-n2cc(C=O)c3ccccc32)cc1
 : ·	·	99	0.95	i	-2	·
N=C1C(c2nc3ccccc3s2)=C(O)CN1NC(=O)c1c[nH]c2ccccc12
 : 117	6	93	0.85	i	0	·
O=c1oc2ccccc2cc1-c1csc(Cc2nc(-c3ccc(Cl)cc3)cs2)n1
 : ·	·	104	1	i	5	-1.7
CC(=O)Nc1cccc(Oc2nc(-c3ccccn3)nc3ccccc23)c1
 : ·	·	95	0.94	i	·	·
CCn1c(CNC(=O)COc2ccc(C(C)C)cc2)nnc1SCC(=O)Nc1cc(F)ccc1C
 : ·	·	99	·	·	19	-0.8
Cc1ccc(S(=O)(=O)C2(C(=O)NC3CCCCC3C)CC2)cc1 (configuration not stated)
 : 111	8	112	1.1	i	-5	·
Cc1cc(SCc2cc(=O)[nH]c3ccccc23)nc2ccccc12
 : 62	26	108	·	·	-7	-2.2
N#Cc1c(-c2ccco2)cc(-c2ccccc2)[nH]c1=O
 : ·	·	94	1.1	i	·	·
CCOC(=O)c1ccc(NC(=O)COc2cc(=O)n(CC)c3ccccc23)cc1
 : ·	·	102	1.4	i	-3	-1.9
CC(C)CC(NC(=O)OC(C)(C)C)C(=O)NC(C(=O)N1CCCC1C(N)=O)C(C)C (configuration not stated)
 : 174	-19	107	1	i	2	-0.1
CCc1n[nH]c(=S)n1/N=C/c1c[nH]c2ccc(Br)cc12
 : 87	-6	101	0.91	i	-5	·
O=C1C2CC=C(Cl)CC2C(=O)N1CN(Cc1ccco1)CN1C(=O)C2CC=C(Cl)CC2C1=O (configuration not stated)
 : 134	-14	99	1.1	i	0	-1.5
COc1cc(NS(=O)(=O)c2ccc(Cl)cc2)c(C(=O)O)cc1OC
 : 93	-107	104	0.97	i	-2	-0.8
Cc1ccc(C(=O)O)cc1NC(=S)NC(=O)c1ccc(-c2ccc(Cl)cc2)o1
 : ·	·	104	0.97	i	·	·
CC1CCc2sc(C(=O)N/N=C/c3ccc([N+](=O)[O-])cc3)cc2C1 (configuration not stated)
 : 112	6	98	0.97	i	0	-0.2
Cc1cccc(C2C3=C(CCCC3=O)N=C3c4ccccc4C(=O)C32)c1 (configuration not stated)
 : ·	·	139	0.86	i	·	·
CC1=CN2C(=N)/C(=C/c3cn(CCCOc4ccccc4C)c4ccccc34)C(=O)N=C2S1
 : 43	-100	100	0.63	i	-1	-1.5
Cc1cc(C)n(CCc2nc3c4ccccc4n(CC#N)c(=O)n3n2)n1
 : ·	·	93	0.81	i	-6	-0.1
CC(C)c1cc(C(F)(F)F)n2nc(C(=O)Nc3ccc(-n4cnnn4)cc3)cc2n1
 : ·	·	102	0.88	i	·	·
CC(C)C(=O)Nc1nnc(SCC(=O)Nc2ccc3c(c2)OCCO3)s1
 : ·	·	103	0.91	i	5	·
Cc1c(NC(=O)C2CCCNC2=O)c(=O)n(-c2ccccc2)n1C (configuration not stated)
 : 138	-22	97	0.93	i	-2	0.6
COc1ccc(NC(=O)c2n[nH]c(=O)c3ccccc23)cc1S(=O)(=O)N1CCCCC1
 : ·	·	102	1	i	5	-0.9
S=C(NCc1ccccc1)N1CCn2cccc2C1c1cccnc1 (configuration not stated)
 : 113	-124	122	0.95	i	0	·
NC(=O)c1cc(N2C(=O)C=CC2=O)ccc1Cl
 : 70	35	93	0.99	i	-4	0.4
Cc1cc2c(cc1C)N(CC(=O)N1CCCC1)C(=O)CC(c1ccccc1)=N2
 : 117	6	101	0.89	i	3	-1.4
O=C(CN1CCC(O)(c2ccc(F)cc2)CC1)NCc1ccc(F)cc1
 : ·	·	110	0.91	i	2	-1.3
Oc1ccc(Cl)cc1C1=NNC(c2cccs2)C1 (configuration not stated)
 : ·	·	98	1.1	i	·	·
COc1ccc(CNC(=S)NCc2ccc(OC)cc2)cc1
 : ·	·	101	1	i	-9	·
CCOC(=O)C1=C(O)/C(=C\c2ccc(CNS(=O)(=O)c3ccc(Br)cc3)o2)N=C1C
 : 85	3	94	·	?	-9	-0.6
CSc1sc(-c2ccnc(SCC(=O)C(C)(C)C)n2)c2c1C(=O)CC(C)(C)C2
 : ·	·	101	0.98	i	·	·
CCOC(=O)C1=C(Cn2cnc3ccccc32)NC(=O)NC1c1ccc(Cl)cc1 (configuration not stated)
 : 99	-33	99	0.99	i	-3	-0.2
CC(=O)Nc1ccc(C(=O)NC2CCCC2)cc1
 : 132	-59	100	0.91	i	-11	-3.6
CCN(CC)C(=O)Cc1c(OC)ccc2cc(Br)ccc12
 : ·	·	95	0.95	i	2	·
CCn1nnc(-c2ccccc2NS(=O)(=O)c2ccc(S(=O)(=O)N(C)C3CCCCC3)cc2)n1
 : 23	-3	111	0.7	i	-1	-1.7
Cc1ccccc1CS(=O)(=O)Cc1ccc(C(=O)NCCCN2CC(C)CC(C)C2)o1 (configuration not stated)
 : 108	-6	102	1.2	i	-6	·
CN1CCN(CC(=O)O)CC1
 : 116	-31	100	0.98	i	-6	-1.9
CC1CC(C)(C)N(C(=O)CSc2ccc(-c3ccc(F)cc3)nn2)c2ccccc21 (configuration not stated)
 : 97	-11	110	0.81	i	-9	-1.2
Cn1c(-c2ccccc2)c(CCO)c2ccccc21
 : 197	-6	102	1.2	i	4	-0.1
C/C=C/c1ccccc1OCc1ccc(C(=O)OC)o1
 : 131	-14	117	1.1	i	-14	-2.5
COC(=O)CCc1sc(Nc2ccccc2)nc1-c1ccc(OC)cc1
 : ·	·	103	0.94	i	-9	-1.0
c1coc(-c2nc3nc4ccccc4n3nc2-c2ccco2)c1
 : 102	-34	98	1.1	i	-4	-1.2
C=CCNC(=O)c1ccccc1NC(=O)COc1ccccc1
 : 71	-37	97	0.99	i	0	·
COc1ccc(-c2cc(=O)oc3cc(OCC(C)=O)ccc23)cc1
 : 93	26	110	0.91	i	-14	-0.8
N#Cc1ccccc1CN1C(=O)S/C(=C/c2cccn2-c2ccc(C(=O)O)cc2)C1=O
 : 148	-3	92	0.88	i	-3	-2.8
CN(C)CCN(C(=O)c1ccc(S(=O)(=O)N(C)C)cc1)c1nc2cc3c(cc2s1)OCCO3
 : 99	15	97	1	i	-6	·
COC(=O)C1=C(N)N(c2ccccc2F)C2=C(C(=O)CC(C)(C)C2)C1c1ccc(OC)c(OC)c1 (configuration not stated)
 : 122	-54	108	0.9	i	1	0.8
CCOc1cccc(NC(=O)C2CC(=O)NC(=Nc3ccccc3)S2)c1 (configuration not stated)
 : 243	-71	103	0.94	i	2	-0.9
COc1ccc2nc(C)cc(Sc3nc4ccccc4s3)c2c1
 : ·	·	97	0.6	i	·	·
CC(=O)Nc1nc(NC(=O)C(Cl)(Cl)Cl)n(-c2ccccc2)n1
 : ·	·	100	1.1	i	·	·
O=C(Cn1cc([N+](=O)[O-])cn1)Nc1ccn(Cc2c(F)c(F)c(F)c(F)c2F)n1
 : 133	19	99	1	i	-4	-0.9
CCN1C(=O)c2cccc3c(Cl)ccc(c23)C1=O
 : ·	·	100	0.97	i	-1	·
COc1ccc(C(=O)CSc2cc(C)nc(SCC(=O)c3ccc(C)cc3)n2)cc1
 : 131	53	70	0.89	i	-4	-0.7
Cc1ccc(CNC(=O)CCS(=O)(=O)c2ccc(Br)cc2)cc1
 : 88	29	98	1	i	-3	·
CCO[C@H]1OC(C(=O)NCc2nc3ccccc3[nH]2)=C[C@@H](C2CC2)[C@@H]1CCCO
 : ·	·	105	0.62	i	-1	·
CN1CCN(/C(=N\S(=O)(=O)c2ccc(F)cc2)c2ccccc2)CC1
 : 218	-3	105	1.1	i	-8	0.0

# More results follow:
# Results follow in this order: Insulin prom inh cell count	Insulin prom inh	RGS16-Gao HTS	HSV augment primary fold	HSV augment	PKD1 kinase inh	GALR2 agonist
N#Cc1cccnc1Nc1ccc(Cl)cc1
 : ·	·	99	0.95	i	-7	·
COc1ccc(C(C(=O)OC(C)CN(C)C)c2ccccc2)cc1 (configuration not stated)
 : 111	26	104	0.84	i	-8	-4.4
S=c1[nH]nc(-c2cccs2)n1/N=C/c1c(Cl)cccc1Cl
 : 73	-13	91	0.97	i	-5	·
O=C(c1cccnc1)N(Cc1ccccc1)C1(C(=O)Nc2ccccc2)CCCCC1
 : 34	-138	101	0.96	i	4	-0.2
C=CCn1cnc2c(c1=O)c1nc3ccccc3nc1n2/N=C/c1cc(OC)c(OC)c(OC)c1
 : 104	0	104	0.6	i	-6	3.9
Cc1ccnc(N/C=C(/NC(=O)c2ccccc2)C(=O)NN)n1
 : 103	38	101	0.95	i	-2	·
C=CCc1cccc(CNc2nc3ccccc3n2CC)c1O
 : 89	-17	102	0.99	i	16	-1.3
Cc1cc(=O)[nH]c(SCc2csc(-c3ccccc3)n2)n1
 : 123	21	105	0.82	i	-4	0.2
Cc1c2cnn(CC(=O)Nc3c(F)c(F)cc(F)c3F)c(=O)c2c(C)n1Cc1ccc(F)cc1
 : 107	0	120	0.99	i	-4	·
CCS(=O)(=O)N1CCC(C(=O)NC2CCCCC2)CC1
 : 125	46	77	1.2	i	-12	-2.8
CC(C)c1ccccc1OCC(=O)NC1CCCc2ccccc21 (configuration not stated)
 : ·	·	98	1.1	i	-3	0.5
CCCCNC(=O)c1ccccc1NS(=O)(=O)c1ccc2c(c1)OCCO2
 : 115	13	77	0.81	i	-9	-1.6
CCc1n[nH]c(=S)n1/N=C/c1ccccc1OCc1ccc(Cl)cc1
 : ·	·	94	1.1	i	-3	·
Cc1ccc(Sc2nc3ccc(C)cn3c(=O)c2/C=N/O)cc1
 : ·	·	101	0.83	i	6	·
CS(=O)(=O)N1CC(C(=O)NC2CC2)Oc2ccc(Cl)cc21 (configuration not stated)
 : 73	63	101	0.98	i	10	-2.0
CCc1ccc(C2=NN(C(=O)OC)C(O)(C(F)(F)F)C2)cc1 (configuration not stated)
 : 153	-10	108	0.92	i	5	-2.6
Cc1cc(=O)[nH]c(SCc2cn3ccccc3n2)n1
 : 142	0	115	0.99	i	-5	·
O=C(COC(=O)Cn1cnc2ccccc2c1=O)Nc1ccccc1Sc1ccc(Cl)cc1
 : 140	-17	102	0.95	i	-6	-0.6
CS(=O)(=O)N1CCN(C(=O)c2ccc(Cl)s2)CC1
 : 100	35	99	0.8	i	-2	·
Cc1ccc2c(c1)n([O-])c1c([n+]2=O)CCCC1
 : ·	·	102	1.1	i	-5	-2.2
Cc1ccc(CN2CC(C(=O)Nc3ccc(S(=O)(=O)Nc4cc(C)nc(C)n4)cc3)CC2=O)cc1 (configuration not stated)
 : 75	54	103	1	i	4	-1.3
Cc1cc(Cl)c(S(=O)(=O)NCCC(=O)O)cc1OCC(N)=O
 : 52	-197	102	1.1	i	11	-1.7
COCCN(C(=O)CSc1nnc(-c2ccccc2F)n1C)c1c(N)n(Cc2ccccc2)c(=O)[nH]c1=O
 : ·	·	105	0.93	i	0	·
COCCOc1cc(-n2cccc2)c(Cl)cc1Cl
 : 64	56	104	1	i	0	·
COc1cc2c(cc1OC)CN(C(C)C(=O)Nc1ccc(NC(C)=O)cc1)CC2 (configuration not stated)
 : 140	27	99	0.91	i	0	-1.3
COC(=O)c1sc(C(=O)OC)c(C(=O)OC)c1C(=O)OC
 : 120	-7	105	1	i	0	0.1

# Sorted by the number under GALR2 agonist (low to high): 3 from the list above.
Structure	GALR2 agonist
COc1ccc(C(C(=O)OC(C)CN(C)C)c2ccccc2)cc1 (configuration not stated)	-4.4
CS(=O)(=O)N1CC(C(=O)NC2CC2)Oc2ccc(Cl)cc21 (configuration not stated)	-2.0
COc1cc2c(cc1OC)CN(C(C)C(=O)Nc1ccc(NC(C)=O)cc1)CC2 (configuration not stated)	-1.3

# Screening data deposited in PubChem by several laboratories.
